NPYLR7 agonist – agonists of mosquito NPYLR7 receptor, primary screen, cell-based, Aedes aegypti, calcium fluorescence, mosquito biting behavior; activation, % at 10 µM; 270,000 compounds, 0.15% hits; Aedes aegypti neuropeptide Y-like receptor 7 (NPYLR7); HEK293T NPYLR7/Galpha15, GCaMP6s calcium fluorescence; in the data active = activation above about 40%;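 also: 0% = vehicle and 100% = reference agonist at the receptor; some compounds past the cut are filed as inactive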
NPYLR7 agonist max-min – recorded beside NPYLR7 agonist, whose call it bears; activation, %; measured here: Max-Min RFU normalised activation; some inactives read as strong as hits;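 span of the calcium signal over five minutes; 0% = vehicle and 100% = native peptide agonist; compound fluorescence can raise it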
An asterisk follows results filed as active; & = joins results of further samples.

SMILES	NPYLR7 agonist	NPYLR7 agonist max-min
O=C(NCCc1cccs1)c1cc(=O)c2ccccc2o1	11	8
CCOC(=O)CCc1c(C)nc2ncnn2c1N1CCC(N2CCOCC2)CC1	8	5
COc1cccc(Cn2cccc2CN(Cc2ccccc2)C(=O)CN(CC(C)C)C(=O)C(Cl)Cl)c1	-4	-1
O=S(=O)(Nc1nc2ccccc2nc1N1CCCC1)c1ccc(Cl)s1	8	15
O=C(c1ccc(Cl)cc1)N(Cc1ccco1)Cc1nccn1Cc1cccc(C(F)(F)F)c1	0	8
N#Cc1ccc(-n2cnc(N)n2)cc1	4	0
C=CCNS(=O)(=O)c1cc(C)c(OCCC)cc1C	13	6
COc1cc(CN2CCn3nc(C(=O)NCc4cccc(C(F)(F)F)c4)cc3C2=O)cc(OC)c1	13	2
CC(C)(C)NC(=O)COC(=O)C12CC3CC(CC(Br)(C3)C1)C2	11	7
COCc1cc(N2CCN(c3cccc(C(F)(F)F)c3)CC2)nc(SCc2cccc(C(=O)O)c2)n1	7	12
Cc1ccc(-n2cc(CNCC3CCN(CCO)CC3)c(-c3ccc(F)cc3)n2)cc1	0	-2
Cc1ccc(S(=O)(=O)N2CCN(Cn3nnn(-c4cccc(C)c4)c3=S)CC2)cc1	7	5
O=C1CCC/C(=N\Nc2ccc(Cl)cc2)C1	-1	-2
COCCN1C(C)CN(C(=O)CN(C)C2CC2)CC1C (stereo not given)	3	5
COc1cccc(Cn2nc(C(=O)N3CCCC(O)C3)c3c2CCN(Cc2c(F)cccc2F)C3)c1 (stereo not given)	0	-1
CCC(C)(C)NC(=O)c1[nH]c2c(c1C)C(=O)CC(C)(C)C2	4	1
Cc1ccc(Cc2cnc(NC(=O)N3CCSCC3)s2)cc1F	-3	-4
Cc1c(C)n2c3c(=O)n(C)c(=O)n(C)c3nc2n1-c1ccccc1OCCCO	0	-2
Cc1cccc2[nH]c(COCC(=O)N3CCCC(N)CC3)nc12 (stereo not given)	4	5
COC(=O)N1CCN(C(C(=O)Nc2ccc(OC)cc2)C2CCCC2)CC1 (stereo not given)	-1	4
Cc1ccccc1NC(=O)c1ccc(N(C)C)cc1	2	2
CC(NC(=O)CCC(=O)c1ccc(Cl)s1)C1CC2CCC1C2 (stereo not given)	2	1
O=C(Cc1ccc(N2CCC(N3CC4CCC3C4)CC2)cc1)NCCc1cccc(F)c1 (stereo not given)	-2	-9
O=C(NCc1cccnc1N1CCCCC1)c1cc(=O)c2ccccc2o1	1	-2
C=CCN1CC(C(=O)N2CCCn3nc(C(=O)OC)cc3C2)CC1=O (stereo not given)	0	2

Copied from the listing, 2 compounds:
SMILES	NPYLR7 agonist	NPYLR7 agonist max-min
O=C(NCc1cccnc1N1CCCCC1)c1cc(=O)c2ccccc2o1	1	-2
C=CCN1CC(C(=O)N2CCCn3nc(C(=O)OC)cc3C2)CC1=O (stereo not given)	0	2

Continuation.
SMILES	NPYLR7 agonist	NPYLR7 agonist max-min
Cc1cc(Cl)cc(Cl)c1CNC(=O)c1cncn1-c1ccc(-c2ccc(F)c(F)c2)cc1	2	5
COc1ccccc1CN1CCCC(CN(CCN(C)C)C(=O)c2ccc(C)s2)C1 (stereo not given)	3	1
COc1ccc(N2C(=O)CSC2c2ccc(NC(=O)c3cccc([N+](=O)[O-])c3)cc2)cc1 (stereo not given)	8	13
Cc1cc(C)c2c(c1)-c1cc(C)nn1C(c1ccco1)N2 (stereo not given)	4	1
CCc1cccc(NC(=O)Cn2ccn3nc(-c4ccccc4)cc3c2=O)c1	5	2
Cc1ccsc1C(=O)Nc1ccc(NC(=O)NCC2CCCO2)cc1 (stereo not given)	1	2
CCCC(C)c1c(-c2ccccc2)ncn1C1CCC(O)CC1 (stereo not given)	-3	-7
N#Cc1cc(F)ccc1NC(=O)c1cc(F)cc(Br)c1	-4	-6
O=C1CCS(=O)(=O)c2c(F)cccc21	5	7
COc1ccc(-c2ccc(C(=O)NS(C)(=O)=O)c(F)c2)c(F)c1	7	3
COCc1nc(NCCn2cccc2)c2cnn(C)c2n1	14	8
Cc1cccc(OCC(=O)NC2CCc3[nH]c4ccc(Br)cc4c3C2)c1C (stereo not given)	-2	-3
CCC(CC)NC(=O)C(C)c1ccc2cc(OC)ccc2c1 (stereo not given)	5	-1
CCNC(=O)OC1CCN(C(=O)Cc2cccs2)CC(=O)N(C)c2ccccc21 (stereo not given)	2	7
CCOc1ccc(C(=O)N2CCCCC2)cc1NC(=O)c1cccc2c1OC(C)C(=O)N2 (stereo not given)	2	0
C=CCCC(=O)N1CCC(Cc2ccc(-n3cccc3)cc2)CC1	10	17
Cc1ccc(NC(=O)NCCS(=O)(=O)c2c(C)[nH]c3ccccc23)cc1C	3	3
CC(NS(C)(=O)=O)C(=O)N(C)Cc1ccsc1 (stereo not given)	22	12
C=CCN(Cc1ccc(Br)s1)C(=O)CSc1nnc(-c2cccc(C)c2)n1C	-5	-6
CCCCN(C(C)=O)c1c(CC)nc2ccc(C(=O)N(C)Cc3ccccc3)cn12	16	12
CCN(CC)C(=O)C1CCN(Cc2cn(C)nc2-c2ccc(C3CCCCC3)cc2)CC1	-1	-2
CN(Cc1ccc(C(F)(F)F)cc1)C(=O)CN1C(=O)C2CCCCC2C1=O (stereo not given)	19	13
CCN(CCN1C(=O)CSC1c1cccc(C(F)(F)F)c1)S(=O)(=O)c1cccc2cccnc12 (stereo not given)	17	19
Cc1ccc(NC(=O)Cn2c(O)c(N=Nc3ccccc3[N+](=O)[O-])c3ccccc32)cc1	19	10
OCC#CC(O)(c1ccc(F)cc1)c1ccc(F)cc1	10	7

(further entries)
SMILES	NPYLR7 agonist	NPYLR7 agonist max-min
COc1cc(OC)cc(N2CCN(C(=O)COc3ccc(Cl)cc3)C(C)C2=O)c1 (stereo not given)	13	25
O=C(c1cccnc1)N1CCC(n2c(-c3ccccc3)nc3ccc(F)cc32)CC1	11	23
COCCOCCC(=O)NC1C(C)CCCC1C (stereo not given)	0	-6
CC(C)c1nc(CN(C)C(=O)c2ccc(-n3cnnn3)cc2)cs1	10	7
O=[N+]([O-])c1ccc2[nH]c(O)c(N=NC(=S)Nc3cccnc3)c2c1	5	3
CCc1nc2ccc(C(=O)NCCCN3CCCC3=O)cn2c1N(C)C=O	11	-5
O=C(CN(CCc1ccc(F)cc1)C1CC1)NCC(=O)N1CCCC1	-7	-8
CCN(CC)Cn1[nH]c(=O)ccc1=O	-1	10
COc1cccc(C(C)Oc2ccc(C(N)=O)cc2)c1 (stereo not given)	-4	-5
COc1cc(CN2C(=O)C(C)(C)ON=C2c2ncccc2C)cc(OC)c1	0	-1
Cc1cccn2c(=O)cc(OCC(=O)c3ccccc3)nc12	-6	-2
CC(C1CC2CCC1C2)n1c(SC(F)F)nnc1-c1ccco1 (stereo not given)	1	1
COc1cccc(-c2cccc3c2NC(=O)C3(C)Cc2ccccc2F)c1 (stereo not given)	2	1
Clc1ccccc1Cc1noc(CN2CCN(Cc3ccccc3)CC2)n1	-12&-2	-12&-4
CC(Cn1cccn1)Nc1ccc(-c2nc(-c3ccccc3F)no2)cn1 (stereo not given)	6	5
CC(C)c1ccc(CNC(=O)C2(C)CCCN2C)cc1 (stereo not given)	5	2
O=C(O)CCc1nnc(SCC(=O)Nc2ccc(F)c(Cl)c2)[nH]c1=O	8	3
O=C(O)c1cc(-c2cccnc2)nc2ccc(Br)cc12	1	2
CC(=NNC(=O)CCn1nnc2ccccc21)c1ccc(-c2ccccc2)cc1	1	4
Cc1ccc(CN(C)Cc2nc(-c3ccc4c(c3)OCO4)no2)o1	19&-3	15&-6
CCOC(=O)c1ccc(Cn2ccnc2-c2cnc[nH]2)o1	2	-7
N#C/C(=C\c1ccc(O)c(O)c1)C(=O)Nc1ccccc1	147*	90*
Cc1onc(-c2ccccc2Cl)c1C(=O)Nc1cccc(F)c1	4	5
CCNC(=O)CCNS(=O)(=O)c1c(Cl)cccc1Cl	1	0
CCOc1ccc(C(=N\O)/C(C)=N\O)cc1	-5	-4

Next part
SMILES	NPYLR7 agonist	NPYLR7 agonist max-min
COc1ccccc1-c1nc(-c2ccc(O)cc2O)cs1	1	5
CCCCCCc1cc2cc(-c3nnc(Nc4ccc(F)cc4)s3)c(=O)oc2cc1O	-1	-7
CC(C)n1cc(C(=O)N2CCN(CC(=O)N3CCOCC3)CC2)c2nn(-c3ccccc3)c(=O)c-2c1	-5	-10
COc1ccccc1NC=C1C(=O)OC2(CCCCC2)OC1=O	4	4
Oc1cc2c(cc1CN1CCc3sccc3C1)OCO2	1	0
CCOC(=O)N1CCN(C(=O)c2cc3c(=O)n4cccc(C)c4nc3n2C)CC1	1	5
O=C(Nc1nnc(-c2ccc3c(c2)CCCC3)o1)c1ccc([N+](=O)[O-])s1	17	7
CC(C)C(NC(=O)c1ccccc1)c1nn[nH]n1 (stereo not given)	6	2
CCc1cccc2c(C(CC(=O)N3CCC(Cc4ccccc4)CC3)c3cccc(OC)c3)c[nH]c12 (stereo not given)	7	16
CCSc1nnc(NC(=O)CN2CCN(Cc3nc(C(C)(C)C)cs3)CC2)s1	-19	-22
O=c1[nH]c(CN2CCN(S(=O)(=O)c3ccccc3C(F)(F)F)CC2)nc2ccc(Cl)cc12	4	8
CCOc1ccc(NC(C)C(=O)NC(=O)NC(C)(C)C)cc1 (stereo not given)	5	3
Cc1cccc(-c2csc3c(=O)[nH]c(N4CCC(C(=O)NCc5ccccc5F)CC4)nc23)c1	-11	-13
CCOC(=O)c1cc(-c2cccc(NC(=O)COC)c2)n(-c2ccc(F)cc2)n1	27	12
Cc1ncc2c(n1)CN(Cc1nnc(C3CC3)o1)CC2	2	0
CNC(=O)c1cc(=O)c(OCc2ccc(F)cc2)cn1C	2	2
CN(Cc1cccc(Cl)c1)Cc1nc2scc(-c3ccccc3)c2c(=O)[nH]1	9	13
COCc1nc(N(C)CCSc2ccccc2)c2cnn(C)c2n1	7	4
CCOC(=O)N1CCC(NC(=O)C2CCC(=O)N(CCc3ccccn3)C2)CC1 (stereo not given)	6&-4	5&-3
COc1ccc(Nc2nc(COC(=O)C3CC4CCCC(C3)C4=O)cs2)cc1 (stereo not given)	4	1
S=C(N=P(c1ccccc1)(N1CCOCC1)N1CCOCC1)N1CCCCCC1	-5	-5
O=S(=O)(NCCOc1ccc2nnc(-c3ccccc3)n2n1)c1cccs1	-3	-3
FC(F)(F)c1cc(-c2ccccc2)n2ncnc2n1	23	15
O=S(=O)(c1ccc(Cl)cc1)N1CCCC(OCc2cc(F)ccc2F)C1 (stereo not given)	-5	-4
CCOC(=O)Cc1c(C)nc2ncnn2c1N1CCN(C(=O)CCCOc2ccccc2)CC1	21	2

(list continues)
SMILES	NPYLR7 agonist	NPYLR7 agonist max-min
CCC1(c2ccc(C)cc2)NC(=O)N(CC(=O)Nc2ccc(C(=O)N(C)C)cc2)C1=O (stereo not given)	2	6
CCN1CCCC1CN1CC(C(=O)NCCc2nc(C(C)C)no2)CC1=O (stereo not given)	6	0
COc1ccc(C)cc1NC(=O)Nc1c(C)nc2sccn2c1=O	-2	-2
CCCN(Cc1ccc(C)cc1)C(=O)CN1CCN(S(C)(=O)=O)CC1	11	11
COc1ccc(OC)c(CNS(=O)(=O)c2ccc(Cl)c(Cl)c2)c1	9	3
Cc1nc(C(F)(F)F)ccc1C(=O)N1CCC1(C)C(=O)Nc1ccc2c(c1)OCO2 (stereo not given)	6	4
Cc1cc(C(=O)N(Cc2ccccn2)c2nc3c(Cl)cccc3s2)on1	2	2
O=C(/C=C/c1cc(Cl)c2c(c1)OCCO2)NS(=O)(=O)C1CCCCC1	7	4
Clc1cc(Cn2cc(-c3ccccc3)cn2)cc2c1OCCO2	10	6
Cc1cc(OCC2CN(C(=O)c3cccc(C#N)c3)CCO2)ccc1Cl (stereo not given)	24	23

Filtered by structure, the compounds so far with an NH in an aromatic ring (13)
SMILES	NPYLR7 agonist	NPYLR7 agonist max-min
CCC(C)(C)NC(=O)c1[nH]c2c(c1C)C(=O)CC(C)(C)C2	4	1
Cc1cccc2[nH]c(COCC(=O)N3CCCC(N)CC3)nc12 (stereo not given)	4	5
Cc1cccc(OCC(=O)NC2CCc3[nH]c4ccc(Br)cc4c3C2)c1C (stereo not given)	-2	-3
Cc1ccc(NC(=O)NCCS(=O)(=O)c2c(C)[nH]c3ccccc23)cc1C	3	3
O=[N+]([O-])c1ccc2[nH]c(O)c(N=NC(=S)Nc3cccnc3)c2c1	5	3
CCN(CC)Cn1[nH]c(=O)ccc1=O	-1	10
O=C(O)CCc1nnc(SCC(=O)Nc2ccc(F)c(Cl)c2)[nH]c1=O	8	3
CCOC(=O)c1ccc(Cn2ccnc2-c2cnc[nH]2)o1	2	-7
CC(C)C(NC(=O)c1ccccc1)c1nn[nH]n1 (stereo not given)	6	2
CCc1cccc2c(C(CC(=O)N3CCC(Cc4ccccc4)CC3)c3cccc(OC)c3)c[nH]c12 (stereo not given)	7	16
O=c1[nH]c(CN2CCN(S(=O)(=O)c3ccccc3C(F)(F)F)CC2)nc2ccc(Cl)cc12	4	8
Cc1cccc(-c2csc3c(=O)[nH]c(N4CCC(C(=O)NCc5ccccc5F)CC4)nc23)c1	-11	-13
CN(Cc1cccc(Cl)c1)Cc1nc2scc(-c3ccccc3)c2c(=O)[nH]1	9	13

An excerpt. The share of hits here may be higher or lower than overall.
